Source: PubChem BioAssay (National Center for Advancing Translational Sciences (NCATS))
GLA inh pH 4.5 – qHTS Assay for Inhibitors of Human alpha-Galactosidase at pH 4.5. Alpha-galactosidase A (Homo sapiens), P06280. AID 1467, 2008. 230,000 tested, under 10 active. purified enzyme, 4-MU-alpha-Gal fluorescence, pH 4.5. activity change, negative = inhibition, % at 105 µM; inconclusive = small, poorly fitted or top-dose-only inhibition, or a rising curve; inactive = flat fitted curve, though single readings scatter; no compound was filed as active;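 note: 0% = full activity with enzyme and -100% = basal without enzyme; dose as in the result columns while the protocol names 77 µM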
Target sequence (P06280 whole entry, looked up): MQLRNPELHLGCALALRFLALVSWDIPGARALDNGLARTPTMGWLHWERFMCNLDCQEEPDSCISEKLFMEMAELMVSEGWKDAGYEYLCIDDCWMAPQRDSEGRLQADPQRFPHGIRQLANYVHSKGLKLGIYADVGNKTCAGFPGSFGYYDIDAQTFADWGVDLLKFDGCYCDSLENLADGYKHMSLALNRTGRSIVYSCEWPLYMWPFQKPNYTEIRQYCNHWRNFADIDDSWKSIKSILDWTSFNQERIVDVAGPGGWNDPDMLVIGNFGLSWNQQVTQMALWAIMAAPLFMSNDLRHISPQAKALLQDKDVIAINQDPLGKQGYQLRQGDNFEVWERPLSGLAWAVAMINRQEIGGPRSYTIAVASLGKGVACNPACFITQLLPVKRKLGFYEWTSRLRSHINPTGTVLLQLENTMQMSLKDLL
Rango dissoc inh – qHTS Assay for Inhibitors of RanGTP induced Rango (Ran-regulated importin-beta cargo) - Importin beta complex dissociation | Biochemical FRET Rango-importin beta, RanGTP-induced dissociation | 0.071% of 340,000 active | Potency, µM (highest dose often 46.1 µM), without a hit: at the top dose activity change, negative = inhibition | Snurportin-1 (Homo sapiens) + GTP-binding nuclear protein Ran (Homo sapiens) + Importin …; active means falling FRET ratio curve, often poorly fitted, with flat reads before Ran was added; inconclusive means other falling curves, or compound fluorescence or quenching; inactive means flat or rising ratio curve;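 note: potency is the fitted concentration of half-maximal effect; % of control where 0% means no effect; nearly all actives have a fitted effect of over 45% in size; -100% = wells without RanGTP and RCC1; the record marks most hits as doubtful in a second field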
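Recombinant Rango FRET biosensor (EYFP–snurportin 1 IBB–cerulean CFP10) at 0.1 uM premixed with 0.25 uM importin beta in PBS, 1 mM DTT, 0.02% Tween-20, 0.1% BSA. Compound added 5 min; RanGTP-RCC1 (0.6 uM Ran, 2 mM GTP, 0.2 uM RCC1) then triggers release, read at 45 min.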
miR-21 FLuc – qHTS Assay for Modulators of miRNAs and/orActivators of miR-21; HeLa miR-21 FLuc reporter, luciferase, 48 h; Potency, µM (titrated, usually from 38.3 µM), for inactives: at the highest dose reporter change, positive = more light; 340,000 tested, under 10 active; active = well fitted rising curve with a large enough effect; inconclusive = small, poorly fitted or top-dose-only effect; inactive = no such curve, though single readings can be large or run the other way;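 note: % of control where 0% means no effect; miR-21 action dims this reporter so a rising signal means less miR-21 action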
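Compounds were titrated across several concentrations (up to approximately 40 uM) and incubated 48 hours with HeLa miR-21-FLuc reporter cells (miR-21 target sequence downstream of FLuc, endogenous miR-21). Readout was firefly luciferase luminescence after lytic detection reagent.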
Rango complex inh – qHTS Assay for Inhibitors of Rango (Ran-regulated importin-beta cargo) - Importin beta complex formation | Importin subunit beta-1 (Homo sapiens), Q14974 | Rango CFP/YFP FRET sensor + importin beta, 45 min | Potency, µM (top dose mostly 92.2 µM), inactives show top-dose inhibition of complex formation | 0.031% of 340,000 active | AID 540263, 2011; active = rising FRET ratio curve, often small or poorly fitted; inconclusive = mostly compound fluorescence or quenching in the first reads; inactive = flat curves in all reads;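 note: potency is the fitted concentration of half-maximal effect; 0% = DMSO wells and 100% = buffer wells lacking importin beta; nearly all actives have a fitted effect of over 15% in size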
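Inhibition scored from the CFP 486 nm/YFP 530 nm FRET ratio 45 min after adding 0.125 microM importin beta to 50 nM Rango biosensor preincubated 5 min with compound (room temperature, PBS with DTT, Tween-20, BSA). No-importin wells as positive control.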
An asterisk follows results filed as active; ? = inconclusive; . = not tested or not shown. Not all compounds are listed; the hit share may differ from the screen's.

Letters – A = GLA inh pH 4.5; B = Rango dissoc inh; C = miR-21 FLuc; D = Rango complex inh
Cn1ncc([N+](=O)[O-])c1C(=O)Nc1ccc(-c2nc3ccccc3o2)cc1
  A: -20; B: 14%; C: -30%; D: -0.4%

CCc1cc2c(N=Nc3c(O)[nH]c4ccccc34)ncnc2s1
  A: 2; B: 12%; C: 0%; D: 5.6%

CSc1nc(SCCO)c2sc3nc(-c4ccco4)c4c(c3c2n1)CC(C)(C)OC4
  A: 1; B: 10%; C: -2%; D: -4.9%

COC(=O)C(Cc1c[nH]c2ccccc12)NC(=O)c1cncc(Br)c1 (stereo not given)
  A: .; B: 1%; C: 0%; D: -0.5%

Cc1ccc(S(=O)(=O)N2CCC(C(=O)N[C@@H](C)C(=O)Nc3ccc(F)cc3)CC2)cc1
  A: .; B: -14%; C: 1%; D: -2.0%

COc1cccc(C(=O)Nc2ccc(Cl)c(C(F)(F)F)c2)c1
  A: -12; B: 1%; C: -18%; D: 5.2%

C=CCOc1ccc(CNn2cn[nH]c2=S)cc1
  A: 1; B: 4%; C: -12%; D: -1.1%

CC1=C(C(N)=O)C(c2cccnc2)n2nc(-c3cccc(C)c3)nc2N1 (stereo not given)
  A: -1; B: -2%; C: -1%; D: -3.8%

CCCN1CCC(=NNc2ccc(C(=O)O)cc2)CC1
  A: -2; B: -10%; C: -27%; D: -6.7%

O=C(N/N=C/c1ccc(-c2ccccc2[N+](=O)[O-])o1)[C@H]1C[C@@H]1c1ccccc1
  A: -11; B: -3%; C: -22%; D: -1.4%

Cc1oc(S(=O)(=O)N2CCCC2)cc1C(=O)Nc1ccccc1
  A: 0; B: -2%; C: 10%; D: -1.0%

Cc1ccccc1NC(=S)NC1CCN(Cc2ccccc2)CC1
  A: -8; B: 1%; C: -10%; D: 1.4%

CN(C)C(=O)CCc1ccc2c3c([nH]c2c1)[C@]1(CCC2CCCC2)[C@@H](C(=O)N2CCOCC2)C[C@H](CC(=O)NCCCn2ccnc2)C(=O)N1CC3
  A: .; B: -14%; C: .; D: -4.9%

O=C(Nc1ccccc1N1CCCCC1)c1ccc(-c2cc(Cl)ccc2Cl)o1
  A: .; B: -11%; C: .; D: 5.6%

CC(C)[C@H](NC(=O)c1cccc(S(=O)(=O)N2CCOCC2)c1)C(=O)NCc1ccc(F)cc1
  A: .; B: -3%; C: .; D: 3.9%

c1ccc2c(c1)nc(N1CCCCCC1)c1ccccc12
  A: 2; B: -17%; C: 8%; D: 11%

Cc1ccc(S(=O)(=O)N(C)C)cc1-n1c(SCC(=O)Nc2ccccc2)nc2ccccc2c1=O
  A: -3; B: -10%; C: -4%; D: 0.2%

CCC1CCCCN1C(=O)Cn1nc([N+](=O)[O-])c(Cl)c1C (stereo not given)
  A: 4; B: 13%; C: 5%; D: 4.4%

Cn1nc(C(F)(F)F)cc1C(=O)Nc1ccc(-c2ccno2)cc1
  A: .; B: -2%; C: 7%; D: 1.4%

CCOC(=O)C1=C(C)NC(C)=C(C(=O)OCC)C1C(=O)OCC(=O)NCCc1ccc(S(N)(=O)=O)cc1
  A: .; B: 8%; C: .; D: -3.3%

Cc1cccc(Nc2nc(-c3ccc(F)c(C)c3)cs2)n1
  A: .; B: -13%; C: -42%; D: 0.0%

CC(C)Sc1nc(N)c2c3c(sc2n1)CN(C)CC3
  A: 8; B: ?; C: -31%; D: ?

COc1ccccc1NC(=S)Nc1ccccn1
  A: 5; B: -10%; C: -11%; D: -1.5%

COc1ccc(OCC(=O)NC(=S)Nc2ccc(N3CCOCC3)c(Cl)c2)cc1
  A: -6; B: 18%; C: 1%; D: -3.2%

Cc1ccc(C(=O)C2CCNCC2)cc1
  A: 1; B: -1%; C: -7%; D: -4.0%

CN(/C=C/C(=C\C=[N+](C)c1ccccc1)OCCCS(=O)(=O)[O-])c1ccccc1
  A: 5; B: -26%; C: 1%; D: ?

CC1CN(c2ccc(Cl)nn2)CC(C)O1 (stereo not given)
  A: 16; B: 1%; C: -10%; D: -2.6%

CC1CSC(N(C(=O)c2ccc(S(C)(=O)=O)cc2)c2ccc(Cl)cc2)=N1 (stereo not given)
  A: .; B: 4%; C: 0%; D: 3.2%

O=C(c1ccccc1)C(C(=O)N1CCCCC1)n1ccccc1=O (stereo not given)
  A: 4; B: -5%; C: -4%; D: 1.7%

CCCC(=O)N1CCN(c2ccc(NC(=O)c3ccc(N4CCCC4)c([N+](=O)[O-])c3)cc2Cl)CC1
  A: .; B: -7%; C: .; D: ?

Cc1ccc(C(C)C)c(OCCCCCN2CCOCC2)c1
  A: .; B: -3%; C: -1%; D: 0.2%

O=C(CCCN1C(=O)c2ccccc2C1=O)Nc1nncs1
  A: 0; B: 6%; C: -3%; D: -0.2%

Cc1onc(-c2ccccc2)c1C(=O)N=C(N)c1ccc(Cl)cc1
  A: -5; B: -1%; C: 0%; D: -0.4%

Cc1cn(C(=O)c2ccccc2)c(=S)n1-c1ccc(Cl)cc1
  A: 0; B: -1%; C: -12%; D: -5.7%

O=C(Nc1cccc(-c2cn3cccnc3n2)c1)Nc1ccccc1F
  A: 1; B: 1%; C: 14%; D: -0.6%

COc1ccc(C)cc1-n1nnnc1SCc1nc2ccccc2s1
  A: -1; B: -2%; C: -42%; D: 1.3%

COc1ccc(S(=O)(=O)N(C)C[C@H]2Oc3c(NS(=O)(=O)c4cn(C)cn4)cccc3C(=O)N([C@H](C)CO)C[C@@H]2C)cc1
  A: .; B: -25%; C: .; D: 3.1%

COc1ccc(CCNC(=O)c2cc(C3CC3)on2)cc1OC
  A: 2; B: -4%; C: -10%; D: -1.1%

O=C1c2oc3ccccc3c(=O)c2C(c2cccs2)N1CCCN1CCOCC1 (stereo not given)
  A: -5; B: -13%; C: -6%; D: ?

O=Cc1ccc(OCC(=O)N2CCOCC2)cc1
  A: 6; B: -4%; C: -1%; D: 0.1%

CCCOc1ccc(N2C(=O)CC(N3CCC(c4nncn4CC)CC3)C2=O)cc1 (stereo not given)
  A: 4; B: 0%; C: -1%; D: -1.9%

CCOc1ccc(N(CC(=O)NC2CCCCC2)C(=O)CCC(=O)Nc2ccccn2)cc1
  A: .; B: ?; C: -2%; D: 2.6%

CC(C)c1ccccc1NC(=O)c1cccc(NC(=O)c2ccccc2)c1
  A: -2; B: -11%; C: 3%; D: 0.2%

O=C1CC(c2ccc(F)cc2)c2cc3c(cc2N1)CCC3 (stereo not given)
  A: 0; B: 0%; C: 24%; D: -2.8%

CCCn1cc(C(CC(=O)O)C(=O)O)c2ccccc21 (stereo not given)
  A: 0; B: -1%; C: -4%; D: -2.4%

Cc1ccnc2nc(C(=O)NC3=NCCS3)nn12
  A: 11; B: 0%; C: -9%; D: 7.3%

CCN1CCN(C(=O)c2cc3c(=O)n4ccccc4nc3n2Cc2ccccc2)CC1
  A: ?; B: .; C: -22%; D: .

C=CCN1C(=NC(=O)CCCC(=O)O)SC2CS(=O)(=O)CC21 (stereo not given)
  A: 4; B: 0%; C: 1%; D: 1.5%

COC(=O)C1=C(C)NC(C)=C(C(=O)O[C@@H]2CCCN(Cc3ccccc3)C2)[C@@H]1c1cccc([N+](=O)[O-])c1
  A: .; B: -5%; C: .; D: 6.4%

C/C(=N\Nc1ccc([N+](=O)[O-])cc1)c1ccc(-n2nncc2C(C)(C)C)cc1
  A: 0; B: -12%; C: -4%; D: 0.2%

Four consecutive records from above, quoted:
Letters – A = GLA inh pH 4.5; B = Rango dissoc inh; C = miR-21 FLuc; D = Rango complex inh
CCC1CCCCN1C(=O)Cn1nc([N+](=O)[O-])c(Cl)c1C (stereo not given)
  A: 4; B: 13%; C: 5%; D: 4.4%

Cn1nc(C(F)(F)F)cc1C(=O)Nc1ccc(-c2ccno2)cc1
  A: .; B: -2%; C: 7%; D: 1.4%

CCOC(=O)C1=C(C)NC(C)=C(C(=O)OCC)C1C(=O)OCC(=O)NCCc1ccc(S(N)(=O)=O)cc1
  A: .; B: 8%; C: .; D: -3.3%

Cc1cccc(Nc2nc(-c3ccc(F)c(C)c3)cs2)n1
  A: .; B: -13%; C: -42%; D: 0.0%

Additional structures follow.
Letters – A = GLA inh pH 4.5; B = Rango dissoc inh; C = miR-21 FLuc; D = Rango complex inh
Cc1ccccc1CNC(=O)c1ccccc1NS(C)(=O)=O
  A: 9; B: -4%; C: -2%; D: -0.8%

Cc1ccc(-n2nc3c(c2NC(=O)C2CCCC2)CS(=O)(=O)C3)cc1
  A: .; B: -6%; C: -4%; D: -0.2%

Nc1nonc1C(=O)OCC(=O)c1ccc(Cl)cc1
  A: 7; B: -6%; C: 0%; D: 3.3%

CC(=O)Nc1ccc(Nc2nnc(-c3ccc(O)cc3)c3ccccc23)cc1
  A: .; B: -7%; C: 4%; D: 0.1%

CSc1ccc(S(=O)(=O)N2CCC(C(=O)NCc3ccncc3)CC2)cc1
  A: .; B: 0%; C: 10%; D: 0.2%

COc1ccc(C(=O)CC(=O)C(=O)Nc2cccc([N+](=O)[O-])c2C)cc1
  A: .; B: 1%; C: 2%; D: 8.3%

COc1ccc(NC(=O)C(OC(=O)c2ccc([N+](=O)[O-])o2)c2ccccc2)cc1Cl (stereo not given)
  A: 9; B: 25%; C: -5%; D: -0.1%

COc1c(C)cc(Br)cc1C(=O)NC(=S)Nc1ccc(Cl)c(C(=O)O)c1
  A: -20; B: -11%; C: 0%; D: 2.7%

COc1cc2cncc(Cc3ccccc3)c2cc1O
  A: .; B: -5%; C: .; D: -2.2%

Cc1nc(C)n(CC(=O)N2CCCC(C(=O)c3cccc4ccccc34)C2)n1 (stereo not given)
  A: 2; B: -1%; C: -5%; D: -1.9%

CC(=O)c1ccc(-n2c(CCC(=O)O)ccc2-c2ccc(C)cc2)cc1
  A: .; B: -10%; C: -5%; D: -1.9%

COc1ccccc1NC(=O)Nc1nc(CC(=O)NCc2c(F)cccc2F)cs1
  A: .; B: -9%; C: .; D: -4.6%

CCOC(=O)c1c(-c2cccc(C)c2)csc1NC(=O)c1c(-c2ccccc2)noc1C
  A: 5; B: -10%; C: 17%; D: 0.0%

O=C(NC(=S)Nc1ccc(CN2CCOCC2)cc1)c1ccc(-c2cccc(Cl)c2)o1
  A: -12; B: -4%; C: 14%; D: 0.9%

O=c1[nH]c2ccc(S(=O)(=O)Nc3ccc(-c4nnc5n4CCCCC5)cc3)cc2o1
  A: 8; B: 9%; C: -6%; D: 5.4%

CC1(C)C2([N+](=O)[O-])CN3CC1([N+](=O)[O-])CN(C2)C31CCCC1
  A: 9; B: 2%; C: 1%; D: -8.4%

O=C(Cc1ccccc1)NC1CCN(C(=O)NCc2ccccc2)CC1
  A: -9; B: -10%; C: -9%; D: 5.2%

COCCNc1oc(/C=C/c2ccc(F)cc2)nc1S(=O)(=O)c1ccccc1
  A: .; B: -2%; C: -16%; D: -1.5%

COc1cccc(C(=O)Nc2nc(C)cs2)c1
  A: 1; B: 14%; C: -33%; D: -0.4%

COc1ccc(N2C(=O)/C(=C/c3cccs3)NC2=S)cc1
  A: 1; B: 16µM*; C: -24%; D: ?

COc1ccc(CNC(=O)CSc2nc3ccc(OC)cc3[nH]2)cc1
  A: .; B: 3%; C: -1%; D: 0.1%

COc1ccc(S(=O)(=O)N2CCN(c3cccc(C)c3C)CC2)cc1
  A: -6; B: -4%; C: -8%; D: 6.0%

Single values from the list:
Result for COc1ccc(CNC(=O)CSc2nc3ccc(OC)cc3[nH]2)cc1 in Rango dissoc inh: 3%
Result for CCOC(=O)C1=C(C)NC(C)=C(C(=O)OCC)C1C(=O)OCC(=O)NCCc1ccc(S(N)(=O)=O)cc1 in Rango complex inh: -3.3%
Result for COc1ccc(CCNC(=O)c2cc(C3CC3)on2)cc1OC in Rango complex inh: -1.1%
